Beta2AR agonist – beta2AR agonists driving receptor internalization, primary screen, cell-based, FAP fluorogen, flow cytometry; Beta-2 adrenergic receptor (Homo sapiens), P07550; Am2.2-beta2AR cells; reference of the scale not given here; response, % (concentration not given with the values); actives 0.43% (n = 340,000); AID 504454, 2011;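 active = response above a set limit, near 3 SD of response in nonfluorescent compounds, cut at about 42% in these data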;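 note: stock transfer was 100 nL into about 11 µL; a reference agonist was the positive control; negative values mostly stem from fluorescent compounds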
UCH37 inh – inhibitors of human UCH37 deubiquitinase, primary screen, biochemical, Ub-AMC cleavage, fluorescence; inhibition, % (no concentration beside the values); actives 0.33% (n = 330,000); purified proteasome/UCH37; Ubiquitin carboxyl-terminal hydrolase isozyme L5 (Homo sapiens), Q9Y5K5; AID 588478, 2011;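 active = mean of two replicates above 20%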;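 note: 0% = compound-free wells with enzyme and 100% = wells lacking proteasome; stock transfer was 100 nL into about 20 µL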
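Material: human UCH37 enzyme supplied as purified proteasome complex / Amount: 0.15 nM proteasome as dispensed / Buffer or medium: pH 7.4 Tris-HCl (50 mM) with ovalbumin, ATP-MgCl2, DTT / Times: preincubation 30 min, reaction 25 min, room temperature / Technique: AMC fluorescence from Ub-AMC cleavage, excitation 355 nm, emission 460 nm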
E coli growth – E. coli growth inhibition, primary screen, OD600 | AID 1053175, 2014 | Escherichia coli growth, 23 h; stronger effect = lower value | actives 0.21% (n = 330,000) | OD600 absorbance (no concentration beside the values);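 active = OD600 absorbance below the run mean of sample wells minus 3.6 SD, in any replicate, cut at about 0.56 in these data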;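 note: stock transfer was 300 nL into about 60 µL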
FGF22 binding – binders of human FGF22 protein, primary screen, FGF22 synaptogenesis inhibitor project, biophysical, thermal shift, single point. recombinant FGF22 thermal shift, SYPRO orange fluorescence; percent of sucrose octasulfate shift, DMSO zero. calls only at 9.99 µM. actives 1.5% (n = 340,000);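 active = melting point raised past a set limit in the mean and every replicate; inconclusive = no clear call; three in four hits are not shown here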
Target sequence (Q9HCT0 whole entry, looked up): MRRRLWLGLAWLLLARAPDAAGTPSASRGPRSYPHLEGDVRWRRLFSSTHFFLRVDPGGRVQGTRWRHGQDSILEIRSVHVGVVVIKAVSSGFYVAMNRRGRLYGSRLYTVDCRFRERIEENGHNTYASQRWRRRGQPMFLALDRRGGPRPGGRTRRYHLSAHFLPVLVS
HNF4A DNA FP – change in binding of human HNF4A to DNA, primary screen, biochemical, fluorescence polarization, FITC-DNA; Hepatocyte nuclear factor 4-alpha (Homo sapiens), P41235; 1 h; activity change, % at 10 µM; actives 0.3% (n = 360,000); AID 1224865, 2016; in the data active = activity change above about 30%, passing the limit was not always enough;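 note: controls were the assay level and a saturating level of protein; the project sought stronger binding though the title names inhibitors; some compounds called inactive have numbers as strong as hits; positive values seem to mean higher polarization but the record does not say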
Target sequence (P41235 whole entry, looked up): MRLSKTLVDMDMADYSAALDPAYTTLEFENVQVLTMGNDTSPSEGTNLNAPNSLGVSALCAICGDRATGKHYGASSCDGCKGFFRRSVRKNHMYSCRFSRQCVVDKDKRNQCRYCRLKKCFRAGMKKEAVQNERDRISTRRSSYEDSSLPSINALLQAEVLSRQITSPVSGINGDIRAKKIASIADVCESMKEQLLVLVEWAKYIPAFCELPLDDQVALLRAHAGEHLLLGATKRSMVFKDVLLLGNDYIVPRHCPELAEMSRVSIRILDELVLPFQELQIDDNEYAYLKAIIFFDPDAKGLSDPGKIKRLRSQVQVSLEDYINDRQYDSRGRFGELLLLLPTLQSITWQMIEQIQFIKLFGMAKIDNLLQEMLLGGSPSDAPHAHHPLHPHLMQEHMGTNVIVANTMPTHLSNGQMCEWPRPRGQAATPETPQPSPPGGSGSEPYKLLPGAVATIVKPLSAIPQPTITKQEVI
rRNA inh HTS – reduced GFP signal of wild-type E. coli, primary screen, bacterial rRNA inhibitor project, GFP/RFP fluorescence, OD600, single point; E. coli WT GFP vs humanized-ribosome RFP mutants, 24 h; stronger effect = lower value; DMSO median 0, no signal -100; GFP signal change (wild-type ribosome), % (test concentration not listed); actives 1.6% (n = 350,000); AID 720706, 2013;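 active = significant combined selectivity score with lowered wild-type GFP, culture density cut under 30%, mutant RFP and density less affected; inactive = any of these conditions unmet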; note: one replicate is shown; some compounds called inactive have numbers as strong as hits
ALR H2O2 inh – inhibitors of human ALR sulfhydryl oxidase, primary screen, biochemical, H2O2 detection, HRP-luminol luminescence, single point; FAD-linked sulfhydryl oxidase ALR (Homo sapiens), P55789; actives 3.8% (n = 290,000); inhibition, % (no concentration beside the values); purified ALR, DTT oxidation; AID 485317, 2010;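 active = mean and each replicate at 75% or more; inconclusive = only one of the two met; inactive = neither met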;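 note: stock transfer was 7.5 nL into about 7.5 µL; 0% = neutral wells and 100% = wells with inactivated enzyme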
Target sequence (P55789 whole entry, looked up): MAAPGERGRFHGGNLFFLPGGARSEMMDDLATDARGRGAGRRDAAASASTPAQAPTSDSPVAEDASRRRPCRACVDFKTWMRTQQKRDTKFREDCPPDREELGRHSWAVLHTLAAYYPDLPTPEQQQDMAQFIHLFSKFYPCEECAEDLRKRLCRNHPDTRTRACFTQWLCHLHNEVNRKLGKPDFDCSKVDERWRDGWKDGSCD
rRNA inh HTS OD600 – also measured in rRNA inh HTS; calls as there; OD600 change, %; measured here: OD600 growth;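 optical density of the mix in the first replicate; 0 = DMSO median and -100 = no signal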
rRNA inh HTS RFP – recorded beside rRNA inh HTS, whose call it bears; RFP signal change, %; measured here: RFP humanized mutant strains;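 first replicate; 0 = DMSO median and -100 = no signal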
An asterisk follows results filed as active; i = inactive; ? = inconclusive; . = not tested or not shown; & = joins results of further samples. Not all compounds are listed; rates above refer to the full screens.

Fields: Beta2AR agonist	UCH37 inh	E coli growth	FGF22 binding	HNF4A DNA FP	rRNA inh HTS	rRNA inh HTS OD600	rRNA inh HTS RFP	ALR H2O2 inh
- Cc1ccc(OCCCn2c(=O)oc3ccccc32)cc1
 : -7	1.3	0.65	i	1.0	-33*	-21*	-1.8*	-6
- CCCCCOc1ccc(/C=c2\sc3nc(=O)c(-c4ccccc4)nn3c2=O)cc1OC
 : 6	.	.	i	-3.7	0	12	-4.1	-6
- COc1c2occc2c(OC)c2c(=O)cc(C(F)(F)F)oc12
 : -9	1.9	0.74	.	0.2	.	.	.	-3
- O=C1C2CCCCN2C(=O)N1CCCN1CCN(c2cccc(C(F)(F)F)c2)CC1 (stereo not drawn)
 : -8	.	.	i	-3.9	-9	-11	0.7	.
- COCCCNC(=O)CN1C(=O)/C(=C/c2ccccc2C)Sc2ccccc21
 : -7	-1.6	0.67	.	-1.7	-13	-16	1.8	-5
- CCOC(=O)C(C)c1nn(C)c(=O)c2ccccc12 (stereo not drawn)
 : 2	-0.1	0.73	.	0.7	.	.	.	0
- C[C@H](NC(=O)c1[nH]cnc1C(=O)Nc1ccccc1)c1ccccc1
 : -5	2.9	.	i	-2.3	-36	-47	-3.9	-5
- CCc1ccc(N2CC(C(=O)Nc3nnc(CC)s3)CC2=O)cc1 (stereo not drawn)
 : -2	0.8	0.69	.	0.8	.	.	.	0
- O=C(NCc1ccccc1)C1Nc2ccc(OC(F)(F)F)cc2C2C=CCC12 (stereo not drawn)
 : -2	1.6	0.69	.	-2.7	.	.	.	5
- CC(C)(C)OC(=O)N1CCCC1C(=O)O (stereo not drawn)
 : 0	5.0	0.71&0.72	.	3.3	.	.	.	-20
- Cc1occc1C(=O)NNC(=O)c1ccccc1[N+](=O)[O-]
 : -2	3.1	0.69	i	-3.5	8	8	1.1	7
- CC1(C)Cc2c(cnn2-c2cccc(F)c2)C(NC(=O)c2cc[n+]([O-])cc2)C1 (stereo not drawn)
 : -12	2.3	0.67	i	8.3	10	20	-2.0	1
- CCOC(=O)Cc1nnc2c(Nc3ccc(C)cc3)nc3nonc3n12
 : -2	-6.5	0.67	.	1.3	.	.	.	0
- NNC(=O)c1ccc(-c2cccc([N+](=O)[O-])c2)o1
 : 6	5.4	0.68	i	2.3	5	1	-1.8	-4
- S=C(NCc1cccs1)NCC1CCCO1 (stereo not drawn)
 : -4	-1.1	0.54	i	-0.8	21	11	0.0	.
- O=C(Nc1ccc(Cl)cc1C(=O)N1CCCCC1)c1ccco1
 : 0	2.0	0.7	i	3.9	2	5	1.3	-34
- Cc1csc2ncnc(NNC(=O)c3ccc(Cl)cc3)c12
 : 0	6.7	0.69	i	5.3	.	.	.	?
- Cc1ccccc1NC(=O)c1ccc([N+](=O)[O-])o1
 : -1	6.5	0.65	i	-0.1	.	.	.	-78
- CCCOc1ccc(C2C(C(=O)c3ccc(C)o3)=C(O)C(=O)N2Cc2ccco2)cc1 (stereo not drawn)
 : 20	4.4	0.72	i	-3.8	3	0	-2.2	28
- CCOC(=O)c1ccc(CC(=O)c2ccc(O)cc2O)o1
 : 7	2.8	0.72	.	10	.	.	.	26
- O=c1[nH]c(/C=C\c2ccc(O)c(Cl)c2)nc(O)c1[N+](=O)[O-]
 : 3	21*	0.69	i	0.5	5	15	-1.2	28
- Cc1ccc2oc(C(F)(F)C(F)F)cc(=O)c2c1
 : -2	0.5	0.69	i	-1.2	20	9	3.5	-13
- COc1cccc(/C=N/NC(=O)C(=O)N2CCCC2)c1OC
 : 3	.	.	.	3.0	.	.	.	-2
- CCCCCOc1ccc(N2C(=O)C3C4C=CC(C3C2=O)N(C)C4=O)cc1 (stereo not drawn)
 : -2	2.3	0.7	.	-1.2	.	.	.	3
- CCC/C=C/c1ccc(CN2C(CC(C)C)C(=O)N(Cc3cn(CC4CCCCC4)nn3)CCS2(=O)=O)cc1 (stereo not drawn)
 : .	.	.	i	-1.1	-8	-5	-6.1	.
- Cc1ccc(S(=O)(=O)Cc2cc(F)c([N+](=O)[O-])cc2[N+](=O)[O-])cc1
 : 28	.	.	.	0.4	.	.	.	-27
- C/C(=N\N=C(/N)SC1CC(=O)N(c2ccc(Br)cc2)C1=O)c1cccs1 (stereo not drawn)
 : 12	.	.	i	3.8	-31	-29	37	0
- COc1ccccc1NC(=O)COC(=O)c1ccccc1SCC(=O)N1CCCC1
 : 3	-60	0.73	i	0.4	9	14	1.2	1
- CCc1ccccc1NC(=O)CSC1=C(C#N)C(c2ccc(O)c(OC)c2)C2=C(CCCC2=O)N1 (stereo not drawn)
 : 10	6.3	0.75	.	0.6	.	.	.	68
- Cc1cc(=O)[nH]c(SCC(=O)NC2CCCCC2)n1
 : 9	-1.7	0.67	i	3.4	8	5	-0.5	3

UCH37 inh, entries above that show a hit
| SMILES | Beta2AR agonist | UCH37 inh | FGF22 binding | rRNA inh HTS | rRNA inh HTS OD600 | rRNA inh HTS RFP | ALR H2O2 inh |
| --- | --- | --- | --- | --- | --- | --- | --- |
| O=c1[nH]c(/C=C\c2ccc(O)c(Cl)c2)nc(O)c1[N+](=O)[O-] | 3 | 21* | i | 5 | 15 | -1.2 | 28 |

(cont.)
Fields: Beta2AR agonist	UCH37 inh	E coli growth	FGF22 binding	HNF4A DNA FP	rRNA inh HTS	rRNA inh HTS OD600	rRNA inh HTS RFP	ALR H2O2 inh
- COc1cc(NC(=S)NN2CCOCC2)cc(OC)c1
 : 3	.	.	.	-0.9	6	-6	-3.3	.
- CC(=O)NC12CC3CC(C1)CC(C(=O)N(C)CC(=O)Nc1ccccc1Cl)(C3)C2
 : 0	-0.1	0.64	i	0.6	7	-4	3.4	1
- COc1ccc(NC(=O)Nc2cccnc2)cc1
 : -2	-0.5	0.69	i	0.7	4	-15	-3.0	.
- Cc1nccc(-c2ccc3c(c2)OCO3)n1
 : 9	-30	0.71	i	-4.5	10	8	-0.4	-7
- CC(C)(C)c1ccc(S(=O)(=O)N2CCc3nc4ccccc4c(C(=O)O)c3C2)cc1
 : 9	0.4	0.7	i	-0.5	19	8	6.0	2
- Cc1ccc(C(=O)NNC(=O)c2ccc(-n3cncn3)c([N+](=O)[O-])c2)cc1
 : -12	3.0	0.7	i	-0.7	23	20	-0.4	-8
- CCCC(=O)c1c(NC)cc(C)oc1=O
 : -1	4.5	0.73	.	0.1	.	.	.	2
- CCOC(=O)/C(C#N)=C(/C)c1ccc(OC)cc1
 : 7	4.0	0.76	.	2.6	.	.	.	-1
- CCN1CCN(c2ccc(S(=O)(=O)N3CCOCC3)cc2NC(=O)C2CCC(C(C)(C)C)CC2)CC1 (stereo not drawn)
 : 10	-1.9	0.71	i	4.3	-9	-24	27	.
- Cc1cccc(NC(=S)N2CCCC(c3nc4ccccc4[nH]3)C2)c1 (stereo not drawn)
 : 2	0.0	0.66	i	1.3	-24	-23	7.6	0
- COc1cccc(/C=N/n2c(SC)nnc2-c2ccccc2)c1OC
 : 11	.	.	.	-1.0	.	.	.	-4
- COCCCn1c(C)cc(C(=O)COC(=O)C23CC4CC(CC(O)(C4)C2)C3)c1C
 : -3	1.1	0.71	i	1.8	-1	-6	1.5	.
- Cc1cc(C(=O)NNC(=O)Cc2ccc(Cl)c(Cl)c2)c(C)o1
 : 4	5.1	0.65	.	3.7	-13	-12	1.4	.
- COC(=O)CN1C(=O)[C@H]2[C@@H](/C=C/c3ccccc3)N3C(=O)CN(Cc4ccc(-c5ccccc5)cc4)C(=O)[C@@]3(C)[C@H]2C1=O
 : -3	2.6	.	i	3.1	6	14	-1.2	1
- CCN(CC)CCNC(=O)c1cn(CC)c2ccc(S(=O)(=O)N3CCOCC3)cc2c1=O
 : 13	4.6	0.67	i	1.5	16	9	1.5	-26
- Cc1cc(C)c(C)c(S(=O)(=O)N2CCN(CC(=O)NC(=O)NCc3ccccc3)CC2)c1C
 : -10	5.3	0.81	.	0.1	.	.	.	4
- c1ccc(-n2cnc3cc(NCc4ccncc4)ccc32)cc1
 : -11	2.8	0.64	.	4.3	.	.	.	99*
- C[C@@H]1CN([C@@H](C)CO)C(=O)CCCn2nncc2CO[C@@H]1CN(C)S(=O)(=O)c1ccccc1F
 : .	.	.	i	1.0	-1&-1	4&0	-0.5&-2.2	.
- CN1CCN(CC(=O)Nc2ccccc2C(F)(F)F)CC1
 : 6	3.6	0.7	i	2.4	5	4	-3.0	-10
- CCOC(=O)NNC(=O)NCCCCCCNC(=O)NNC(=O)OCC
 : -3	5.8	0.64	i	-0.8	2	3	-3.3	13
- Cc1ccc(NCc2cccnc2)c(Br)c1
 : 4	4.1	0.67	i	-1.9	-8	-10	-7.8	45
- O=C(CSc1nc2ccccc2s1)NCc1ccc2c(c1)OCO2
 : 4	0.5	0.69	.	4.7	.	.	.	98*
- CC(=O)NC(CC(=O)NCC(=O)Nc1ccc(F)c(F)c1)c1ccccc1 (stereo not drawn)
 : -4	3.3	0.68	i	1.5	4	12	-2.0	-5
- CCCCc1nc2ccccc2[nH]1
 : 2	0.0	0.69	i	-1.8	6	-6	0.9	-1
- CCOC(=O)CSc1ccc2nnc(-c3ccccc3)n2n1
 : 4	-23	0.7	i	-2.5	-5	-5	-1.3	-7
- CCOc1ccc(NC(=O)CCc2c(C)noc2C)cc1OC
 : 0	-0.5	0.69	i	1.6	.	.	.	.
- Cc1c(C(=O)NCCN(C)C)oc2ccc(S(=O)(=O)N3CCCC3)cc12
 : -2	1.4	0.63	i	3.3	4	13	-0.3	2
- O=C(Cn1cc2c(n1)CCCCC2)Nc1ccc(F)cc1F
 : .	.	.	i	3.8	5	6	1.6	.
- CCOc1cc(-c2ccc(N)c(OCC)c2)ccc1N
 : 1	-0.8	0.7	.	-45	.	.	.	30
- C[C@H](NC(=O)c1nc[nH]c1C(=O)NCCCCCNC(=O)OC(C)(C)C)C(=O)OCc1ccccc1
 : 7	5.6	.	i	-1.3	-1	-5	7.1	4

Next structures follow.
Fields: Beta2AR agonist	UCH37 inh	E coli growth	FGF22 binding	HNF4A DNA FP	rRNA inh HTS	rRNA inh HTS OD600	rRNA inh HTS RFP	ALR H2O2 inh
- Cc1ccc(S(=O)(=O)N2CCN(C(=O)COC(=O)CCc3ccccc3)CC2)c(C)c1
 : -2	5.8	0.67	i	2.6	.	.	.	.
- Cc1ccc(-n2ccnc2SCC(=O)O)cc1C
 : -1	0.1	0.71	i	-1.5	-41	-71	8.3	2
- Cc1cc(C(F)F)n2ncc(C(=O)O)c2n1
 : -2	3.5	0.7	.	-1.8	-3	4	3.1	0
- CCOC(=O)c1c(C)[nH]c(C)c1S(=O)(=O)NCC1CCN(Cc2cccc(F)c2)CC1
 : -2	0.7	0.72	i	6.1	1	5	-0.1	-7
- O=C(Nc1ccc2ncccc2c1)c1ccccc1
 : 10	.	.	i	0.8	15	13	3.5	-3
- Cc1ccc(-n2ncc3c(=O)n(CC#N)cnc32)cc1C
 : 1	-0.2	0.75	.	1.1	.	.	.	-1
- Cc1cc(=O)n2c(n1)NC(Nc1cccc(C)c1C)=NC2c1ccc(F)cc1 (stereo not drawn)
 : -7	0.8	0.63	i	0.8	10	4	1.3	-1
- Cc1ccc(CSc2nnnn2C)cc1
 : -1	2.7	0.61	.	-3.8	.	.	.	-10
- COc1ccccc1NS(=O)(=O)c1ccc(C(=O)NCCCN2CCOCC2)cc1
 : -3	2.9	0.66	i	1.5	13	12	-0.5	.
